Yeast UUG start: modulators of yeast start codon fidelity, primary screen, whole organism, S. cerevisiae, single point, plate reader; S. cerevisiae UUG-firefly luciferase reporter, luminescence/redox ratio; activity score, % at 18.7 µM; 350,000 compounds, 0.13% hits; AID 602363, 2012;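 active means replicate mean at a twofold rise or more, about +100% in these data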;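 further: firefly luciferase made from a UUG start codon reports start codon fidelity; reporter light over untreated wells divided by growth signal over untreated wells; some hits fall short of that in this replicate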
* = called active by the depositor. A portion of the library. The share of hits here may be higher or lower than overall.

SMILES	Yeast UUG start
C[C@H](CO)N1C[C@H](C)[C@H](CN(C)Cc2ccc(-c3ccccc3)cc2)Oc2c(NC(=O)C3CCOCC3)cccc2C1=O	6
C[C@H](O)C#Cc1ccc([C@H]2[C@H](CO)N3CCCCN(S(=O)(=O)Cc4ccccc4)C[C@@H]23)cc1	20
CC(=O)NC[C@@H]1[C@H](c2ccc(-c3cccc(F)c3)cc2)[C@H](CO)N1C(C)=O	-7
CC(=O)N1[C@@H](CO)[C@@H]2c3ccccc3N(C(=O)Nc3cc(F)ccc3F)C[C@@H]21	4
CC(=O)N(C)C[C@@H]1[C@@H](c2ccccc2)[C@H](CO)N1C(=O)C1CCC1	-3
COc1ccccc1-c1ccc2c(c1)[C@H]1[C@H](CCN1S(=O)(=O)c1cccc(C)c1)[C@@H](CO)N2	-6
O=C(C[C@H]1CC[C@H]2[C@@H](COC[C@H](O)CN2C(=O)Nc2cccc(F)c2)O1)NCCCN1CCOCC1	-7
C[C@H]1CN([C@@H](C)CO)C(=O)c2cccc(NC(=O)c3nc4ccccc4s3)c2O[C@@H]1CN(C)CC1CCCCC1	17
C[C@@H]1CN([C@H](C)CO)C(=O)c2cccc(NC(=O)c3nc4ccccc4s3)c2O[C@H]1CN(C)C	-1
CCC(=O)N1CC[C@@H]2[C@H]1c1cc(-c3cccc(F)c3)ccc1N(C)[C@@H]2CO	-5
O=C(c1ccccc1F)N1CC[C@@H]2[C@@H](CO)Nc3ccc(-c4ccc(F)cc4)cc3[C@@H]21	-8
CCCNC(=O)N1[C@H](CO)[C@@H](c2ccccc2)[C@H]1CNC(=O)c1ccccc1	6
C[C@@H]1CN([C@@H](C)CO)C(=O)c2cc(NC(=O)Nc3ccc(F)cc3)ccc2O[C@H]1CN(C)S(=O)(=O)c1cccs1	3
C[C@@H]1CN([C@H](C)CO)C(=O)c2cc(NC(=O)c3ccncc3)ccc2O[C@H]1CN(C)S(=O)(=O)c1cn(C)cn1	-16
C/C=C/c1ccc([C@H]2[C@H]3CN(C(=O)Nc4cc(F)ccc4F)CCCCN3[C@H]2CO)cc1	8
C[C@@H]1CN([C@H](C)CO)C(=O)c2cc(NC(=O)Cc3cn(C)c4ccccc34)ccc2O[C@@H]1CN(C)Cc1ccc(Cl)c(Cl)c1	20
Cc1noc(C)c1NC(=O)N(C)C[C@@H]1Oc2ccc(NC(=O)NC3CCCCC3)cc2C(=O)N([C@@H](C)CO)C[C@H]1C	-2
COc1cccc(S(=O)(=O)N2CCCCN3[C@@H](CO)[C@@H](c4ccc(-c5cncnc5)cc4)[C@@H]3C2)c1	-9
CO[C@@H]1CN(C)C(=O)c2ccc(NC(=O)C3CC3)cc2OC[C@@H](C)N(C(=O)NC(C)C)C[C@@H]1C	-4
Cc1cccc(S(=O)(=O)N2C[C@H]3[C@@H](c4ccccc42)[C@H](CO)N3C(=O)c2ccccc2)c1	8

Overlap with the part before: 2 entries, then new ones.
SMILES	Yeast UUG start
CO[C@@H]1CN(C)C(=O)c2ccc(NC(=O)C3CC3)cc2OC[C@@H](C)N(C(=O)NC(C)C)C[C@@H]1C	-4
Cc1cccc(S(=O)(=O)N2C[C@H]3[C@@H](c4ccccc42)[C@H](CO)N3C(=O)c2ccccc2)c1	8
C[C@@H]1CN([C@H](C)CO)C(=O)c2c(c3ccccc3n2C)-c2ccccc2CO[C@@H]1CN(C)S(=O)(=O)c1ccccc1	2
O=C(c1cccnc1)N1C[C@@H]2[C@H](c3ccccc31)[C@@H](CO)N2CC1CCCC1	82
CO[C@@H]1CN(C)C(=O)c2ccc(NC(=O)C3CCC3)cc2OC[C@@H](C)N(C)C[C@H]1C	-10
C[C@@H]1CN([C@H](C)CO)C(=O)Cc2cc(NC(=O)Nc3ccc(C(F)(F)F)cc3)ccc2O[C@@H]1CN(C)Cc1ccncc1	-2
O=C(NCC1CC1)[C@H]1N[C@H]2c3ccc(-c4ccccc4F)c(=O)n3C[C@H]2[C@@H]1CO	-3
CO[C@H]1CN(C)C(=O)c2cc(NC(=O)C3CC3)ccc2OC[C@H](C)N(C(=O)CN(C)C)C[C@H]1C	-3
O=C(NCCCN1CCOCC1)[C@@H]1[C@@H](CO)[C@@H]2Cn3c(ccc(C4=CCCC4)c3=O)[C@H]1N2	-2
CN1C(=O)c2cc(NC(=O)c3cccs3)ccc2OC[C@@H]2O[C@H](CC(=O)O)CC[C@@H]21	-7
C[C@H]1CN([C@@H](C)CO)C(=O)c2cc(NC(=O)CCC(F)(F)F)ccc2O[C@@H]1CN(C)S(=O)(=O)c1ccccc1	3
CCCNC(=O)C[C@@H]1CC[C@@H]2[C@H](COC[C@@H](O)CN2Cc2ccc(Cl)c(Cl)c2)O1	20
CCN(C[C@H]1N[C@H](CO)[C@H]1c1ccc(-c2cccc(F)c2)cc1)C(=O)COC	11
C[C@@H]1CN([C@@H](C)CO)C(=O)c2cc(NC(=O)Nc3ccc(C(F)(F)F)cc3)ccc2O[C@@H]1CN(C)Cc1ccc(C(=O)O)cc1	0
COCCNC(=O)C[C@H]1CC[C@H]2[C@H](COc3ccc(NC(=O)Nc4cccc(F)c4)cc3C(=O)N2C)O1	-8
C[C@H]1CN([C@@H](C)CO)C(=O)Cc2cc(NC(=O)CCN3CCOCC3)ccc2O[C@H]1CN(C)S(=O)(=O)c1ccc(F)cc1	2
C[C@@H]1CN([C@H](C)CO)C(=O)c2cccc(NC(=O)c3cnccn3)c2O[C@@H]1CN(C)Cc1ccncc1	1
C[C@H]1CN([C@@H](C)CO)C(=O)CCCn2nncc2CO[C@@H]1CN(C)S(=O)(=O)c1ccc2c(c1)OCCCO2	2
CCCC#Cc1ccc([C@@H]2[C@@H](CO)N3CCCCN(S(=O)(=O)CC)C[C@@H]23)cc1	-5
CNC[C@@H]1Oc2c(NC(=O)Nc3ccc(F)cc3)cccc2C(=O)N([C@@H](C)CO)C[C@H]1C	-5
CC(C)N(C[C@H]1N[C@H](CO)[C@@H]1c1ccccc1)C(=O)CN1CCOCC1	-3
O=C(C1CCCCC1)N1CC[C@@H]2[C@H](CO)Nc3ccc(Br)cc3[C@@H]21	2

3 compounds already listed, sorted by number of heavy atoms, smallest number first.
SMILES	Yeast UUG start
O=C(C1CCCCC1)N1CC[C@@H]2[C@H](CO)Nc3ccc(Br)cc3[C@@H]21	2
O=C(NCCCN1CCOCC1)[C@@H]1[C@@H](CO)[C@@H]2Cn3c(ccc(C4=CCCC4)c3=O)[C@H]1N2	-2
C[C@H]1CN([C@@H](C)CO)C(=O)c2cc(NC(=O)CCC(F)(F)F)ccc2O[C@@H]1CN(C)S(=O)(=O)c1ccccc1	3

Next part.
SMILES	Yeast UUG start
O=C(C[C@@H]1CC[C@@H]2[C@H](COC[C@H](O)CN2S(=O)(=O)c2ccc(F)cc2)O1)N[C@H]1CCN(Cc2ccccc2)C1	38
OC[C@@H]1[C@H](c2ccc(C#CC3(O)CCCC3)cc2)[C@@H]2CN(Cc3ccncc3)CCCCN12	-5
C[C@@H]1CN([C@@H](C)CO)C(=O)c2cccc(NS(=O)(=O)c3cn(C)cn3)c2O[C@H]1CN(C)Cc1ccncc1	-14
C[C@@H]1CN([C@H](C)CO)C(=O)c2cccc(NS(=O)(=O)c3ccc(F)cc3)c2O[C@@H]1CN(C)C	-4
C[C@@H]1CN([C@@H](C)CO)C(=O)c2cc(NC(=O)CCCN(C)C)ccc2O[C@H]1CN(C)C(=O)Nc1cccc2ccccc12	-6
C[C@H]1CN([C@@H](C)CO)C(=O)Cc2cc(NS(=O)(=O)c3ccccc3)ccc2O[C@H]1CN(C)Cc1ccncc1	-14
C[C@@H]1CN([C@H](C)CO)C(=O)c2cccc(NC(=O)C3CCCCC3)c2O[C@@H]1CN(C)Cc1ccc(C(=O)O)cc1	-26
CC(C)NC(=O)N(C)C[C@H]1Oc2ccc(NS(C)(=O)=O)cc2CC(=O)N([C@@H](C)CO)C[C@H]1C	-17
Cc1noc(C)c1NC(=O)Nc1ccc2c(c1)C(=O)N([C@H](C)CO)C[C@@H](C)[C@H](CN(C)C)O2	16
CCCNC(=O)C[C@H]1CC[C@@H]2[C@H](COC[C@@H](O)CN2Cc2cccc(F)c2)O1	-6
O=C(C[C@H]1CC[C@H]2[C@@H](COC[C@@H](O)CN2C(=O)c2cnccn2)O1)NCc1ccc(Cl)cc1	-12
O=C(Nc1ccccc1)N1CCCCN2[C@H](C1)[C@@H](c1ccc(-c3ccccc3F)cc1)[C@@H]2CO	13
O=S(=O)(c1cccs1)N1CCCCN2[C@H](C1)[C@H](c1ccc(Br)cc1)[C@@H]2CO	8
COCCNC(=O)C[C@@H]1C[C@H]2c3cc(NC(=O)NC4CCCC4)ccc3O[C@H]2[C@@H](CO)O1	-1
O=C(c1ccccc1)N1CC[C@H]2[C@H](CO)Nc3ccc(C#Cc4cccc(F)c4)cc3[C@H]21	-17
Cc1ccc(S(=O)(=O)N2CC[C@@H]3[C@@H](CO)Nc4ccc(C#Cc5cccc(F)c5)cc4[C@@H]32)cc1	4
COc1ccccc1C#Cc1ccc2c(c1)[C@@H]1[C@@H](CCN1S(=O)(=O)c1cn(C)cn1)[C@@H](CO)N2	-11
CN(C)C(=O)c1cccc(-c2ccc([C@H]3[C@H]4CN(C(=O)C5CCCC5)CCCCN4[C@H]3CO)cc2)c1	-2
COCC(=O)N1[C@H](CO)[C@@H]2c3ccccc3N(C(=O)c3cccc(OC)c3)C[C@@H]21	6
CO[C@@H]1CN(C)C(=O)c2cc(NC(=O)C3CCC3)ccc2OC[C@H](C)N(Cc2nccs2)C[C@H]1C	-1

Taken from the listing (six entries):
SMILES	Yeast UUG start
CCCNC(=O)C[C@H]1CC[C@@H]2[C@H](COC[C@@H](O)CN2Cc2cccc(F)c2)O1	-6
O=C(C[C@H]1CC[C@H]2[C@@H](COC[C@@H](O)CN2C(=O)c2cnccn2)O1)NCc1ccc(Cl)cc1	-12
O=C(Nc1ccccc1)N1CCCCN2[C@H](C1)[C@@H](c1ccc(-c3ccccc3F)cc1)[C@@H]2CO	13
O=S(=O)(c1cccs1)N1CCCCN2[C@H](C1)[C@H](c1ccc(Br)cc1)[C@@H]2CO	8
COCCNC(=O)C[C@@H]1C[C@H]2c3cc(NC(=O)NC4CCCC4)ccc3O[C@H]2[C@@H](CO)O1	-1
O=C(c1ccccc1)N1CC[C@H]2[C@H](CO)Nc3ccc(C#Cc4cccc(F)c4)cc3[C@H]21	-17

Later entries:
SMILES	Yeast UUG start
OC[C@@H]1[C@H](c2ccc(-c3cccc(F)c3)cc2)[C@H]2CN(CCC(F)(F)F)CCCCN12	-8
C[C@@H]1CN([C@@H](C)CO)C(=O)Cc2cc(NS(C)(=O)=O)ccc2O[C@H]1CN(C)C(=O)Nc1ccc(F)cc1	-5
C[C@@H]1CN([C@@H](C)CO)C(=O)c2cccc(NS(=O)(=O)c3cccs3)c2O[C@H]1CN(C)S(=O)(=O)c1ccccc1	-3
COCC(=O)NC[C@H]1N[C@H](CO)[C@H]1c1ccc(C2=CCCCC2)cc1	-13
COc1ccccc1-c1ccc2c(c1)[C@@H]1[C@@H](CCN1S(=O)(=O)c1ccccc1OC)[C@H](CO)N2	-11
COc1cccc(S(=O)(=O)N2CCCCN3[C@H](C2)[C@H](c2ccc(-c4cncnc4)cc2)[C@@H]3CO)c1	-9
CN1C(=O)c2cc(NC(=O)Nc3ccccc3F)ccc2OC[C@H]2O[C@H](CC(=O)NCc3ccc(-c4ccccc4)cc3)CC[C@@H]21	-13
CCC(=O)Nc1ccc2c(c1)C(=O)N(C)C[C@H](OC)[C@@H](C)CN(Cc1cccnc1)[C@H](C)CO2	-2
C[C@H](CO)N1C[C@H](C)[C@@H](CN(C)Cc2ccncc2)Oc2c(NC(=O)c3nc4ccccc4s3)cccc2C1=O	0
O=C(Nc1cc(F)ccc1F)N1CCCCN2[C@H](C1)[C@H](c1ccc(C3=CCCCC3)cc1)[C@@H]2CO	8
C[C@@H]1CN([C@H](C)CO)C(=O)c2cc(NC(=O)Cn3cnnn3)ccc2O[C@H]1CN(C)Cc1ccc2c(c1)OCO2	-13
O=C(Nc1ccccc1)N1CCCCN2[C@H](CO)[C@@H](c3ccc(-c4ccccc4)cc3)[C@@H]2C1	-2
Cc1ccc(NC(=O)OC(C)N2CCCCC2)cc1NC(=O)OC(C)N1CCCCC1 (stereo unspecified)	-11
C[C@@H]1CN([C@H](C)CO)C(=O)c2cccc(NC(=O)c3ccncc3)c2O[C@H]1CN(C)Cc1ccc(Oc2ccccc2)cc1	-2
C[C@H](CO)N1C[C@H](C)[C@H](CN(C)Cc2ccncc2)Oc2ccc(NC(=O)Nc3ccc(C(F)(F)F)cc3)cc2C1=O	1
O=S(=O)(c1ccc(F)cc1)N1CCCCN2[C@H](CO)[C@H](c3ccc(-c4ccccc4F)cc3)[C@H]2C1	14
Cc1noc(C)c1S(=O)(=O)Nc1ccc2c(c1)C(=O)N([C@@H](C)CO)C[C@@H](C)[C@H](CN(C)C)O2	-11
CNC[C@@H]1Oc2ccc(NC(=O)NC3CCCCC3)cc2C(=O)N([C@H](C)CO)C[C@@H]1C	-7
COCC(=O)N1[C@H](CO)[C@H]2c3ccccc3N(C(=O)C3CC3)C[C@H]21	-3
COCC(=O)N1[C@H](CNC(=O)c2ccccn2)[C@@H](c2ccccc2)[C@@H]1CO	-1
CCCNC(=O)C[C@@H]1CC[C@H]2[C@@H](COC[C@@H](O)CN2Cc2ccc(Cl)c(Cl)c2)O1	14
C[C@@H](NC(=O)C[C@H]1CC[C@@H]2[C@H](COC[C@H](O)CN2C(=O)Nc2ccccc2)O1)c1ccccc1	-4
COc1ccc(-c2ccc([C@@H]3[C@H](CO)N4CCCCN(C(=O)NC(C)C)C[C@@H]34)cc2)cc1	0
COCC(=O)NC[C@@H]1[C@H](c2ccc(C3=CCCC3)cc2)[C@@H](CO)N1C(C)=O	-1
COCC(=O)Nc1ccc2c(c1)OC[C@H](C)N(Cc1ccccc1OC)C[C@@H](C)[C@@H](OC)CN(C)C2=O	5
CC(C)(O)C#Cc1ccc([C@@H]2[C@H]3CN(C(=O)c4ccc(F)cc4)CCCCN3[C@H]2CO)cc1	41
C[C@@H]1CN([C@@H](C)CO)C(=O)Cc2cc(NS(=O)(=O)c3ccccc3)ccc2O[C@H]1CN(C)C(=O)NC1CCCCC1	-8
CN(C)C(=O)C[C@H]1C[C@H]2c3cc(NS(=O)(=O)c4ccccc4)ccc3O[C@H]2[C@H](CO)O1	-9

High-throughput results as filed in PubChem.
